# H5N1 antiviral: MDCK cell protection from H5N1 avian flu | cytopathic effect, luminescence, 72 h; active compounds read high; no value below 0 was filed and about half of the inactive calls have no number; reference of the scale not given here | inhibition, % at 50 µM | 96,000 tested, 0.07% active | AID 740, 2007; in the data active = inhibition above about 25%
# The depositor's hits bear a star; i = inactive.
SMILES,H5N1 antiviral
COc1ccccc1-n1c(SCC(=O)N2CCc3ccccc32)nc2c(c1=O)SCC2,0.3
Cc1cc(C)nc(N(C#N)Cc2cccc3ccccc23)n1,i
Cc1ccccc1Nc1nnc(C)c(=O)[nH]1,1.5
C=CCSc1nnc2c(n1)[nH]c1c(C)cccc12,i
Cc1cc(S(=O)(=O)N2CCCC2C(=O)N2CCOCC2)c(C)cc1Cl (stereo unspecified),2.4
CC(=O)Nc1ccc(S(=O)(=O)Nc2nc3ccccc3nc2Sc2nncn2C)cc1,0.3
Cc1ccc(CN(C(=O)c2cc3ccccc3oc2=O)C2CCS(=O)(=O)C2)cc1 (stereo unspecified),1.3
COc1ccccc1NC(=O)CN1CCN(Cc2ccccc2)CC1,0.5
CCOc1ccc(NC(=O)CS(=O)CC(=O)NC2CCCc3ccccc32)cc1 (stereo unspecified),i
CCn1nc(C(=O)N[C@@H](CCSC)c2nc3ccccc3[nH]2)c2ccccc2c1=O,0.6
CCCCC(=O)NC(Nc1ccc(C)cn1)(C(=O)OCC)C(F)(F)F (stereo unspecified),0.2
COc1ccc(C(c2nnnn2C2CCCCC2)N2CCN(c3ccccc3F)CC2)cc1 (stereo unspecified),0.2
CCOC(=O)c1ccc(NC(=O)COc2ccc(S(=O)(=O)NC(C)CC)cc2)cc1 (stereo unspecified),i
O=C(Cn1nnc(-c2ccccc2F)n1)Nc1ccc(C(=O)N2CCOCC2)cc1,i
COc1ccccc1NC(=S)NNC(=O)c1nn(C)c(C)c1Cl,0.2
N#Cc1ccccc1Cn1cc(C(=O)c2ccco2)c2ccccc21,i
Cc1ccc(-c2nn(-c3ccccc3)cc2/C=N/NC(=O)CSc2nnc(C)n2-c2ccccc2)cc1,1.9
CCOC(=O)CN1C(=O)C2(OCCCO2)c2ccccc21,0.5
CCCN(CCC)CCCNC(=O)CS(=O)Cc1nc(-c2ccc(OC)c(OC)c2)oc1C (stereo unspecified),i
N=c1c(C(=O)NCc2ccco2)cc2c(=O)n3ccccc3nc2n1Cc1ccc(Cl)cc1,1.1

# Not a retest: entries from further up.
SMILES,H5N1 antiviral
CCCN(CCC)CCCNC(=O)CS(=O)Cc1nc(-c2ccc(OC)c(OC)c2)oc1C (stereo unspecified),i
N=c1c(C(=O)NCc2ccco2)cc2c(=O)n3ccccc3nc2n1Cc1ccc(Cl)cc1,1.1

# (continued)
SMILES,H5N1 antiviral
CN(C)S(=O)(=O)c1cccc(-c2nnc(SCc3cc(Cl)cc4c3OCOC4)n2N)c1,0.2
CCSC(C)CC1C/C(=N/O)c2c(C)noc2C1 (stereo unspecified),0.2
CN1CCN(CCNC(=O)Nc2ccccc2C(F)(F)F)CC1,i
Cc1cc(C)c2c(N)c(S(=O)(=O)Cc3ccccc3)sc2n1,0.3
CCOC(=O)c1cnn(-c2nc(SC)nc3sc4c(c23)CCCC4)c1N,i
Cn1nc(-c2ccccc2)c2nc3ccccc3nc21,0.1
O=c1c(O)c(-c2ccc3c(c2)OCO3)oc2ccccc12,1.0
Cc1ccc(C(=O)CSc2nc3ccccc3c(=O)[nH]2)cc1,i
O=C(CN1CCC(NC(=O)c2ccccc2F)CC1)NCc1ccc(F)cc1,0.4
O=C(O)CCCCCCNS(=O)(=O)c1ccccc1,0.8
CCOC(=O)c1cn2nc(-c3ccc(OCC)cc3)cc2nc1C1CCN(C(=O)OC(C)(C)C)CC1,0.1
c1ccc(CCN2CCC(N3CCN(c4ccccc4)CC3)CC2)cc1,0.4
Nc1c(C(=O)NC2CCCC2)c2nc3ccccc3nc2n1N,i
COc1cccc(-c2ccc(-c3noc(-c4cccs4)n3)c(OC)n2)c1,i
CSC1=NCCN1C(=O)Cc1ccc(F)cc1,0.3
CC(=O)N1c2c(cc(Br)cc2S(=O)(=O)N2CCOCC2)CC1C (stereo unspecified),0.2
O=C(NC1=NCCS1)C1CC2CCC1C2 (stereo unspecified),0.1
N#Cc1ccc(-c2ccc(Cl)cc2)nc1Oc1ccc(F)cc1,2.4
COC(=O)Cn1nc(-c2ccccc2)c2cc(Cl)ccc21,i
CCOc1ncccc1C(=O)OCC(=O)c1ccc[nH]1,i

# A draw from above in order of count of non-hydrogen atoms, smallest number first:
SMILES,H5N1 antiviral
CSC1=NCCN1C(=O)Cc1ccc(F)cc1,0.3
CCSC(C)CC1C/C(=N/O)c2c(C)noc2C1 (stereo unspecified),0.2
Cc1ccc(C(=O)CSc2nc3ccccc3c(=O)[nH]2)cc1,i
CCOC(=O)c1cnn(-c2nc(SC)nc3sc4c(c23)CCCC4)c1N,i

# Returning to the listing; the three compounds before the break are reprinted first.
SMILES,H5N1 antiviral
N#Cc1ccc(-c2ccc(Cl)cc2)nc1Oc1ccc(F)cc1,2.4
COC(=O)Cn1nc(-c2ccccc2)c2cc(Cl)ccc21,i
CCOc1ncccc1C(=O)OCC(=O)c1ccc[nH]1,i
Cc1c(Nc2nc3ccccc3nc2NS(=O)(=O)c2ccccc2)c(=O)n(-c2ccccc2)n1C,1.6
N#CCSc1nc2c(c(=O)n1Cc1ccccc1)C1(CCCC1)Cc1ccccc1-2,2.9
CCOc1cc(/C=C2/C(=N)N3C=CSC3=NC2=O)ccc1OCCCOc1ccccc1C,1.6
C/C(=N\O)c1ccc2c3c([nH]c2c1)CCCC3,i
COc1ccc(-c2cc(C(=O)OC3CCOC3=O)c3ccccc3n2)cc1 (stereo unspecified),0.6
Cc1ccc(Cl)cc1N1CCN(Cc2cc3c(cc2O)CCC3)CC1,i
COc1cccc(C(=O)NCC(=O)N2CCC(C)CC2)c1,i
NC(=O)C1(N2CCCCC2)CCN(C(=O)NC23CC4CC(CC(C4)C2)C3)CC1,i
Cc1cccc(Cn2ccc(-c3ccc(Cl)cc3)c(C#N)c2=O)c1,i
COCCn1nnnc1C(c1cc2cc(C)ccc2[nH]c1=O)N1CCCCCC1 (stereo unspecified),0.6
COc1ccc(N2C(=O)C3CCCN3C2c2ccc(Cl)cc2)cc1 (stereo unspecified),2.2
C=CCOC(=O)COc1ccc2c(C)c(CC)c(=O)oc2c1,0.1
C=C(C)Cn1c(SCC(=O)NCc2ccco2)nc2sc3c(c2c1=O)CCC3,1.6
N#C/C(=C/c1ccc(N2CCCCCC2)o1)c1cccc(F)c1,1.2
COc1ccc(-c2nc(CS(=O)CC(=O)NC3CCCc4ccccc43)c(C)o2)cc1OC (stereo unspecified),0.3
Cc1ccc(S(=O)(=O)CC(N)=O)cc1,0.1
COc1ccc(C)cc1NC(=O)C1CCCN1C(=O)OCc1ccccc1 (stereo unspecified),i
CCCCNC(=O)c1ccccc1NC(=O)CCSc1ccccc1,i
CN(C)c1ncnc2c1NC1=C(S2)C(=NCCCC(=O)O)CC(C)(C)C1,i
CCOC(=O)N1CCN(C(=O)CN(C2CCCCC2)S(=O)(=O)c2c(C)cc(C)cc2C)CC1,i
CCOC(=O)C1=C(C)S/C(=C\N(C)C)C1=O,0.2
Clc1cccc(C2NCCc3[nH]cnc32)c1 (stereo unspecified),i
Cc1ccc(S(=O)(=O)NC2=C(N3CCN(Cc4ccccc4)CC3)C(=O)c3ccccc3C2=O)cc1,i
O=S(=O)(Cc1ccccc1)NCC1CCCO1 (stereo unspecified),i
CCN(CC)C(=O)Cn1nc(C)c2ccccc2c1=O,0.2
Cn1c(=O)cc(SCC(=O)NCCCN2CCN(c3ccccc3F)CC2)c2ccccc21,i
CCOC(=O)CCCCC(=O)c1[nH]c(=O)[nH]c1CSCCO,2.4
C/C(=N\NC(=O)C1CC1c1ccccc1)c1cccs1 (stereo unspecified),1.4
O=C(OC1CCOC1=O)c1ccc(S(=O)(=O)N2CCCCCC2)cc1 (stereo unspecified),0.2
COc1cccc(/C=N/n2c(C)nc3ccccc3c2=O)c1O,0.2
CCOC(=O)C1CCN(C(=O)c2sc3nc(-c4ccccc4)cn3c2C)CC1,0.4
Cc1cc(=O)oc2cc(OCC3CC(c4ccccc4Cl)=NO3)ccc12 (stereo unspecified),i
COc1ccc(NC(=O)c2ccccc2SC)cc1OC,i
O=C(NC1CCCCCC1)C1C2C=CC3(CN(Cc4cccnc4)C(=O)C13)O2 (stereo unspecified),1.7
COc1cc2c(cc1OC)C(c1ccccc1)N(C(=O)c1ccco1)CC2 (stereo unspecified),0.4
CC(C)(NO)/C(=N/O)c1ccc(Br)cc1,1.3
O=C(NC(=S)N(Cc1ccccc1)Cc1ccccc1)c1ccccc1F,3.1
O=C(NCCCN1CCOCC1)c1cc2ccccc2oc1=O,0.3
CCCCOc1ccccc1C1NC(=O)NC(C)=C1C(=O)OCc1ccco1 (stereo unspecified),0.5
CN1C(=O)C(O)(CC(=O)c2ccc3c(c2)OCO3)c2ccccc21 (stereo unspecified),0.9
CCOC(=O)c1ccc(NC(=O)CC2NCCNC2=O)cc1 (stereo unspecified),i
CC(C)c1nc(N2CCOCC2)c(C#N)c2c1CCCC2,2.6
CCc1cc(C(c2ccccc2OC)N2CCOCC2)c(NC(=O)c2ccccc2)s1 (stereo unspecified),i
CC(Nc1nc(N2CCCCC2)nc2ccccc12)c1ccccc1 (stereo unspecified),i
COC(=O)c1ccccc1NC(=O)CN1CCN(C23CC4CC(CC(C4)C2)C3)CC1,i
O=C(CNCCC1=CCCCC1)Nc1ccc(N2CCCCCC2)cc1,i
O=C(Nc1ccc(Cl)c(Cl)c1)OCc1cncs1,i
CCOC(=O)c1oc2c(C)c(O)ccc2c(=O)c1-c1nncn1-c1ccccc1,i
COc1ccc(CCNC(=O)CSc2nnc(CNC(=O)c3ccco3)o2)cc1OC,1.4
COc1cccc(CN2CCCC(C(=O)N3CCCCC3)C2)c1OC (stereo unspecified),i
COc1cc(/C=C2\SC(c3ccc(C)cc3)=NC2=O)cc(OC)c1O,15.3
Cc1ccc(S(=O)(=O)N(C)CC(=O)Nc2ccncc2)cc1,0.9
Cc1ccc(-n2c(=O)[nH]c3cc(C(=O)NC4CCN(Cc5ccccc5)CC4)ccc3c2=O)cc1,i
O=C(CCN1C(=O)C2CC=CCC2C1=O)N1CCN(c2ccccn2)CC1 (stereo unspecified),i
CCn1c(SCC(=O)c2ccc(C)cc2)nnc1-c1ccoc1C,0.2
CC1=CC(C)(C)Nc2ccc(OC(=O)C(Cc3ccccc3)N3C(=O)c4ccccc4C3=O)cc21 (stereo unspecified),i
NC(=O)CN1C(=O)C2C3c4ccccc4C(c4ccccc43)C2C1=O (stereo unspecified),i
CCCn1c(CCC(=O)O)ccc1-c1ccc(OC)cc1,0.3
O=C(N/N=C/c1ccc(O)c(O)c1)C1c2ccccc2Oc2ccccc21,2.1
CCOP(=O)(c1ccccc1)c1nc(-c2ccccc2C)oc1N1CCCCC1 (stereo unspecified),i

# (more compounds)
SMILES,H5N1 antiviral
CCN(CC)c1ccc(C2C(C(=O)OC)=C(C)NC(C)=C2C(=O)OC)cc1,i
CCOC(=O)c1cccc(NC(=O)CNS(=O)(=O)c2cccs2)c1,0.7
CCC(C)NC(=O)CSc1nnc(-c2ccc(C(C)(C)C)cc2)n1C (stereo unspecified),0.1
Cn1c(=O)oc2cc(S(=O)(=O)NCCC(=O)N3CCc4ccccc43)ccc21,2.8
COc1ccc(-c2nnc(CSc3nnc(-c4ccncc4)n3C3CCCCC3)o2)cc1OC,i
CCCOC(=O)CCNc1n[nH]c(=O)[nH]c1=O,i
Cc1cc(NC(=O)CN2CCC(O)(c3cccc(F)c3)CC2)no1,i
COc1ccc(-n2nc3ccccc3n2)cc1,i
O=C(Nc1cccc(Cl)c1)N(CCCN1CCOCC1)Cc1ccccc1F,i
Cc1ccc(C)c(N(C)S(=O)(=O)c2cccc3nsnc23)c1,1.1
CN(CC(=O)NCc1ccco1)S(=O)(=O)c1cccc2cccnc12,4.9
CCCn1nnnc1SCC(=O)Nc1ccc(F)cc1,i
O=C(NCCOC(=O)c1ccc(C(=O)OCCNC(=O)c2cccnc2)s1)c1cccnc1,i
CC(C)(C)NS(=O)(=O)c1ccc(CCC(=O)O)cc1,0.8
COCCn1c(SCC(=O)NCc2ccco2)nc2cccnc21,1.4
CN(C)c1nc(N2CCOCC2)nc(N(c2ccccc2)c2ccccc2)n1,i
Cc1c(Cl)cccc1-n1c(SCC(=O)NCc2cccs2)nnc1-c1ccncc1,0.2
Cc1oc(C(=O)O)cc1CSCc1cc(C(=O)O)c(C)o1,1.4
CCOC(=O)CSC1=C(C#N)C(c2sccc2C)C(C(C)=O)=C(C)N1 (stereo unspecified),0.1
CC(C)(C)C1CCc2c(sc3c2C(=O)NC(c2ccco2)N3)C1 (stereo unspecified),0.3
COc1ccc(S(=O)(=O)N2Cc3ccccc3CC2C(=O)O)cc1 (stereo unspecified),1.1
Cc1noc(C)c1CSCC(=O)OCC(=O)NC1CCCCC1,0.2
Oc1ccc(C=Nc2ccc(N3CCOCC3)cc2)c(O)c1,i
CCn1c2ccccc2c2cc(NC(=O)c3cccc(OC)c3)ccc21,0.7
COc1ccc(CN2CCNC(=O)C2CC(=O)O)cc1OC (stereo unspecified),1.7
CC(C)C(c1nnnn1C(C)(C)C)N1CCOCC1 (stereo unspecified),0.1
O=C(NCCCN1CCOCC1)c1ccc(-n2nc(C(F)(F)F)cc2-c2cccs2)cc1,i
O=c1c2ccccc2nc2n1CCCS2,0.1
N/C(=N\OC(=O)Nc1ccccc1)c1ncc(C(F)(F)F)cc1Cl,0.2
CN(C)c1[nH]c(=O)c(C#N)c2c1CCN2Cc1ccccc1,3.0
CN(c1cccc(NC(=O)Cc2ccccc2)c1)S(C)(=O)=O,0.5

# A second format for six compounds above.
compound	H5N1 antiviral
CCn1c2ccccc2c2cc(NC(=O)c3cccc(OC)c3)ccc21	0.7
CC(C)C(c1nnnn1C(C)(C)C)N1CCOCC1 (stereo unspecified)	0.1
COc1ccc(CN2CCNC(=O)C2CC(=O)O)cc1OC (stereo unspecified)	1.7
Cc1noc(C)c1CSCC(=O)OCC(=O)NC1CCCCC1	0.2
Oc1ccc(C=Nc2ccc(N3CCOCC3)cc2)c(O)c1	i
CN(c1cccc(NC(=O)Cc2ccccc2)c1)S(C)(=O)=O	0.5

# Only part of the results is shown. The share of hits here may be higher or lower than overall.
